# Menin MLL FP FL: displaces fluorescein MLL peptide from human menin. Fluorescence polarization, fluorescein-MLL peptide displacement from menin. FP activity change, % at 61.4 µM. 290,000 tested, under 10 active; inconclusive = falling polarisation curve, or a change in total fluorescence; inactive = total fluorescence flat and polarisation flat or rising; no compound was filed as active; the % refers to the polarisation; negative = inhibition;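 also: % of control where 0% means no effect; inhibitors lower the polarisation; unlabelled MLL peptide was the positive control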
# PINK1 expr mod: PINK1 expression modulation | PINK1 immunofluorescence, high-content cytometry, 24 h | Potency, µM (titrated, usually from 76.6 µM), without a hit: top-dose activation (PINK1 increase), actives largely listed as activators | 0.2% of 410,000 active; active = well fitted activation curve with a large enough effect; inconclusive = small, poorly fitted or top-dose-only effect; inactive = flat fitted curve, though single readings scatter; cell line not stated here;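 also: potency is read from the fitted curve at half-maximal effect; % of control where 0% means no effect; nearly all actives have a fitted effect of over 65% in size; a mitochondrial uncoupler was the plate control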
#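 Readout is PINK1 immunofluorescence, quantified alongside mitochondrial, cell and nuclear markers by laser-scanning microplate cytometry. Cells from a stable line were exposed to compound titrations (5 concentrations) for 24 hours, with CCCP controls.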
# ClpP mod: qHTS Assay for Activators of ClpP; AID 651965, 2013; Potency, µM (titrated, usually from 57.5 µM), for the others: top-dose activity change, negative = active; 1.9% of 340,000 active; purified B. subtilis ClpP, FRET peptide cleavage, 20 min; ATP-dependent Clp protease proteolytic subunit (Bacillus subtilis (strain 168)), P80244; active = well fitted falling curve with a large enough effect; inconclusive = small, poorly fitted or top-dose-only effect; inactive = no such curve, though single readings can be large or run the other way; also: potency is read from the fitted curve at half-maximal effect; the source files actives as falling curves though it sought activators and does not explain the sign; nearly all actives have a fitted effect of over 65% in size; many hits overshoot -100%
# Target sequence (P80244 whole entry, looked up): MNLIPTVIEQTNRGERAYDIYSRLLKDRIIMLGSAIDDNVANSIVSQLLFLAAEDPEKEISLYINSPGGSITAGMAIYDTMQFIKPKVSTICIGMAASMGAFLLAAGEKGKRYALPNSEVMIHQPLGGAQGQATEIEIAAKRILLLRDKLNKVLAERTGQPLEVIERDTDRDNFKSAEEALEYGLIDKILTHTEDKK
#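 FRET quenching reversal measured ClpP activation: 10 microg/mL B. subtilis ClpP at pH 8 with the FRET-FV decapeptide, read at 430 nm after 320 nm excitation. The 20-min minus 0-min signal was scaled between DMSO/no-enzyme wells and ADEP (5.8 microM final).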
# D2 ag: agonists of human D2 dopamine receptor (beta-arrestin). 0.084% of 360,000 active. AID 624465. P14416. DiscoveRx PathHunter D2 beta-arrestin, luminescence, 90 min; 100% = 57 uM dopamine signal. activation, % (concentration not given with the values); in the data active = activation above about 40%; inconclusive = about 15% to 40%; inactive = below about 15%; also: compound concentration not given in the record; the text of the record calls up to 30% inactive
# Target sequence (P14416 whole entry, looked up): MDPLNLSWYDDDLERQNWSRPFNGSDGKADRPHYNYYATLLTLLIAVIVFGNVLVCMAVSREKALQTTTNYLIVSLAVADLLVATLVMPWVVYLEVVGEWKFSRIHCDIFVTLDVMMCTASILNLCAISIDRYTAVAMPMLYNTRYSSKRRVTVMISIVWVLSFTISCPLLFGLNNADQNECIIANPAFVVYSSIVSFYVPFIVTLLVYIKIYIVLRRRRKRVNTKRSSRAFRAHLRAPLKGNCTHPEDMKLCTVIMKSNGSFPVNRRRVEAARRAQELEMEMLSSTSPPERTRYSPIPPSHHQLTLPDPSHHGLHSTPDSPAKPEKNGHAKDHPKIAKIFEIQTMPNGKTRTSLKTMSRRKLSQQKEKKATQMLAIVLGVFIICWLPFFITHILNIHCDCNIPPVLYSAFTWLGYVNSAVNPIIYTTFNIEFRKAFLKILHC
#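 Agonist mode: compounds alone added to overnight-plated D2 PathHunter cells for 90 min at 37 C, with 57 uM final dopamine (EC100) defining full response. Beta-arrestin recruitment detected by chemiluminescent reagent, read after 1 h at ambient temperature.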
# gsp antagonist: gsp mutant antagonism. gsp-mutant cells, cAMP HTRF, 30 min; control for the full effect not named in the record. Potency, µM (highest dose often 76.9 µM), for the others: top-dose activity change, negative = inhibition, most hits filed as inhibitors. 0.4% of 340,000 active. AID 624288; active = falling curve of any shape with a large fitted effect; inconclusive = falling curve, mostly with a smaller effect; inactive = flat or rising curve; cell line not stated here;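 also: intracellular cAMP measured with PDE inhibitor Ro 20-1724 present during compound exposure; potency is read from the fitted curve at half-maximal effect; % is scaled to controls: 0 for no effect and ±100 for the full control effect; nearly all actives have a fitted effect of over 65% in size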
#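 G418-selected cells were plated in DMEM/10% FBS for 16-24 h at 37C, then treated with compounds plus the PDE inhibitor […] (300 uM solution added) for 30 min at 37C. Intracellular cAMP was measured by HTRF after 30 min lysis at room temperature.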
# Sfp inh: Sfp phosphopantetheinyl transferase inhibition | Biochemical Sfp PPTase activity, qHTS | Potency, µM, inactives show max response, negative = inhibition, actives largely listed as inhibitors | 3.5% of 310,000 active | AID 1490; active = well fitted inhibition curve with a large enough effect; inconclusive = small, poorly fitted or top-dose-only effect, or another doubt; inactive = no such curve, though single readings can be large or run the other way;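 also: the enzyme is Sfp with the accession as filed and its product quenches rhodamine fluorescence; potency is read from the fitted curve at half-maximal effect; 0% = enzyme reaction without inhibitor and -100% = no enzyme wells; top concentration of the series not given in the record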
#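 Compounds were incubated with enzyme (final 15 nM) for 15 min at room temperature before substrate addition started the reaction. Fluorescence at 525 nm excitation, 598 nm emission was recorded immediately and after 30 minutes.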
# gsp ag: agonists of gsp mutant (McCune-Albright syndrome); gsp mutant cells, cAMP HTRF, 30 min; control for the full effect not named in the record; Potency, µM (doses to about 76.9 µM), inactives show at the highest dose activation (cAMP increase), actives largely listed as activators; 0.13% of 340,000 active; active = well fitted activation curve with a large enough effect; inconclusive = small, poorly fitted or top-dose-only effect, or another doubt; inactive = no such curve, though single readings can be large or run the other way; cell line not stated here;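 also: phosphodiesterase inhibitor Ro 20-1724 added with compounds to block cAMP breakdown; potency is read from the fitted curve at half-maximal effect; nearly all actives have a fitted effect of over 60% in size; about a fifth of the inactives were tested at one dose only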
#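 Cells in DMEM/10% FBS with G418 were pretreated with compounds in DMSO plus […] (300 uM stock) for 30 min at 37C. cAMP was measured by HTRF (cAMP-d2 plus anti-cAMP antibody-K) after 30 min at room temperature.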
# Numbers without * were called inactive; ? = inconclusive; . = no result given; & = joins results of further samples; [ ] = dose if it differs, or a comment.
SMILES,Menin MLL FP FL,PINK1 expr mod,ClpP mod,D2 ag,gsp antagonist,Sfp inh,gsp ag
CC(=O)Nc1cc(-c2cccc(F)c2)cn2c(-c3ccccc3)cnc12,.,0.7%,4.6%,-3.8,.,.,.
COC(=O)c1cn(C(=O)c2ccccc2F)nc1N,0.7,-1.2%[38.3 µM],-1.0%,-4.8,7%,14%,-9%
CC(=O)c1sc(Nc2cccc(C)c2)nc1C,-0.1,3.7%,.,4.5,3%,12%,-7%[15.4 µM]
CCN(CC)C(=O)c1oc2ccc(S(=O)(=O)N3CCCCCC3)cc2c1C,2.7,-0.2%[38.3 µM],1.2%,1.3,-30%,2%,1%
COc1cccc(-n2c(SCC(=O)O)nnc2-c2cccnc2)c1,-8.9,.,-1.9%,-3.2,3%,12%,5%
O=C(CSc1nnc(Nc2ccccc2F)s1)c1cc2ccccc2o1,1.8,-3.3%,-1.6%,-1.3,-11%,-17%,-8%
Cc1cc(Cl)cc(Cl)c1OCCOc1cccc2cccnc12,-0.9,2.6%,-24%,-3.0,3%[15.4 µM],?,1%
CCNc1nc(NC(C)CC)nc(Oc2ccc(OCC)nn2)n1 (stereo unspecified),2.7,-0.6%&-1.8%,0.4%&0.8%,-5.8,-18%,-6%,16%
CC1CCN(Cc2c(C(=O)N/N=C/c3cc(Br)ccc3O)nnn2-c2nonc2N)CC1,2.3,3.1%,.,-4.5,0%,4%,-3%[15.4 µM]
COc1ccc(C2=NOC(C(=O)NCC(C)C)C2)cc1 (stereo unspecified),7.2,0.6%[38.3 µM],-1.3%,-0.2,10%,7%,-20%
Cc1nc2ccccn2c1C(=O)NN,1.8,-0.8%,-2.8%,4.0,11%,-19%,?
Cc1cc(S(=O)(=O)NCCCN2CCOCC2)ccc1F,7.0,2.0%,0.6%,-1.3,2%,6%,-3%
COc1cccc(-c2cc(C(=O)Nc3cccc(O)c3)no2)c1,4.7,9.1%[38.3 µM],0.4%,0.7,-26%,-18%,5%
O=C(CN1C(=O)c2ccccc2C1=O)N1CCN(C(=O)c2ccco2)CC1,-6.1,0.2%[38.3 µM],-0.2%,-1.6,0%,-11%,-55%[inhibitor]
O=C(C1CCN(S(=O)(=O)c2cccnc2)CC1)N1CCN(C2CCCC2)CC1,1.9,2.2%,-2.0%,0.5,10%,13%,?
CC(=O)c1cccc(NC(=O)c2ccc3c(Cl)c4c(nc3c2)CCCC4)c1,5.5,6.7%,0.3%,-1.3,6%,12%,-15%[15.4 µM]
Cc1cc2nc(NCCCO)n(CC(=O)c3cc(C(C)(C)C)c(O)c(C(C)(C)C)c3)c2cc1C,.,?,-0.3%,-2.6,8%,.,.
O=C(CN(Cc1ccc(Br)cc1)S(=O)(=O)c1ccccc1)NCc1ccncc1,.,0.7%,-1.5%,4.0,-3%,-4%,8%
CCOc1cc(S(=O)(=O)NCc2ccccc2)ccc1F,7.7,-1.8%,1.1%,0.2,2%,10%,-24%
CC(Sc1nnc(Cc2cccs2)n1C1CCCCC1)C(N)=O (stereo unspecified),3.8,-0.2%,0.9%,3.4,-3%,13%,28%
COC(=O)[C@@H]1C[C@@H]2CC[C@@H](O)C[C@@H]2N1Cc1ccc(OC)cc1,-0.8&5.1,2.1%,-1.5%,-2.3,13%,9%&4%,.
C=CCn1c(SCC(=O)C(C)(C)C)nnc1-c1cccs1,?,-0.1%[38.3 µM],-3.5%,3.1,5%,-17%,13%
CC1(C)CC(=O)N(c2ccccc2)C1(C)O (stereo unspecified),3.8,2.5%,-3.5%,-1.7,-1%,-2%,1%
COc1ccc(C2OC(=O)C(C)(C)C(=O)C2(C)C)cc1OC (stereo unspecified),3.7,-0.1%,1.1%,-4.4,6%,24%,?
CC1C(O)CC2C(C(=O)O)=CO[C@@H](O[C@H]3OC(CO)C(O)C(O)C3O)C21 (stereo partly specified),2.1,0.0%,.,.,.,5%,.
COc1ccc(CCNC(=O)COC(=O)c2cnccn2)cc1,2.2,2.5%,-3.1%,1.2,7%,9%,1%
CCCc1ccc(OCC(O)CN2CCN(c3ccccc3)CC2)cc1 (stereo unspecified),4.3,4.1%&9.0%,4.0%,?,11%&8%,9%,-11%&-10%
CCn1c(=NC(=O)C2COc3ccccc3O2)sc2c(OC)ccc(OC)c21 (stereo unspecified),0.8,-1.8%,?,-6.4,-2%,20%,20%
Cc1csc(SCC(=O)Nc2sc3c(c2C#N)CCC3)n1,9.1,3.8%,0.0%,-4.5,-6%,5%,-29%
Cc1cc(NS(=O)(=O)c2ccc(NC(=O)c3ccc(F)cc3)cc2)nc(C)n1,.,4.2%,-0.3%,-3.0,-4%,.,-12%
Cc1ccc(S(=O)(=O)N2CCC3CC2c2cc(Cl)ccc23)cc1 (stereo unspecified),.,-1.3%,0.4%,-0.5,-4%,.,.
CCCc1nnc(N2C(=O)c3cccc4cccc(c34)C2=O)s1,-0.9,-1.5%,?,-5.0,-5%,-2%,24%
C[C@@H]1CN([C@H](C)CO)C(=O)c2cc(Br)cnc2O[C@@H]1CN(C)C(=O)CC1CC1,.,1.2%,1.4%,-5.6,.,.,13%
COc1cc(NC(=O)C2CCC(CNc3c(N4CCCCC4)c(=O)c3=O)CC2)cc(OC)c1 (stereo unspecified),1.1,1.7%,-1.7%,5.1,-5%,15%,-8%
O=C(COC(=O)Cc1ccc(F)cc1)NCc1ccco1,-4.1,0.2%,-1.5%,-0.2,9%,12%,-29%
Nc1nc2ncc(CNc3ccc(C(=O)NC(CCC(=O)O)C(=O)O)cc3)nc2c(=O)[nH]1 (stereo unspecified),-0.7&-2.3&0.0,-0.3%,4.0%,.,.,10%&-9%&0%,.
CC(C(=O)NC1C(=O)N2C(C(=O)O)=C(CSc3nnnn3C)CSC12)n1cc(Br)cn1 (stereo unspecified),14,0.3%,0.4%,-2.4,-2%,10%,0%
O=C(CC1C(=O)Nc2ccccc2N1CC(=O)N1CCCC1)Nc1ccc(Br)cc1 (stereo unspecified),.,16%,-1.1%,-0.3,4%,.,-3%
COc1ccc(CN(C)C(=O)c2ccc3c(=O)n4c(nc3c2)CCC4)c(OC)c1,.,1.2%,-8.6%,2.1,-1%,.,-42%[inhibitor]
CCCCn1c(-c2c(Cl)c(C)nn2C)n[nH]c1=S,0.3,3.7%,.,2.0,-6%,-9%,-1%[15.4 µM]
Cc1cc(-n2nc3ccccc3n2)c(O)c([N+](=O)[O-])c1,-1.7,-0.1%,0.4%,-2.9,-10%,-9%,16%[15.4 µM]
O=C1NC(=O)C2(N1)C(=O)c1cccc3cccc2c13 (stereo unspecified),.,-1.5%,0.9%,-9.3,.,.,?
CC(c1nnc(SCC(=O)Nc2cc([N+](=O)[O-])ccc2F)n1Cc1ccccc1)N(C)C (stereo unspecified),3.5,-3.1%,.,-0.5,-3%,27%,2%
COc1ccccc1Nc1ccc(S(=O)(=O)N2CCCCC2)cc1[N+](=O)[O-],1.9,1.8%,-2.4%,-5.0,-5%,4%,24%
CCOC(=O)Cn1c(C(C)=O)nc2ccccc21,-2.2,1.2%,-22%,-2.2,-1%,18%,-32%[inhibitor]
C[C@H]1CN([C@@H](C)CO)C(=O)CCCn2cc(nn2)CO[C@@H]1CN(C)C(=O)c1ccncc1,.,-1.0%,1.3%,3.0,.,.,8%
COc1ccc([C@H]2CC(=O)C=C(c3cccc(Cl)c3O)C2)cc1OC,.,-0.5%,0.0%,-5.5,5%,.,.
Cc1ccccc1NC(=O)CN1C(=O)S/C(=C/c2cccnc2)C1=O,.,-0.3%,-7.3%,-2.5,10%,-11%,-27%
CCCCn1c(SCC(=O)Nc2ccc3c(c2)CCC3)nc2ccccc2c1=O,-4.2,8.1%,-2.4%,-1.8,-17%,4%,23%
COc1cc(S(=O)(=O)n2ccc(C)n2)c(OC)cc1Cl,0.2,?,0.7%,-2.9,5%,5%,1%
O=C(NCc1ccccc1Cl)c1ccc(CSc2nc3ccncc3[nH]2)cc1,?,-0.9%,.,1.8,-18%,17%,-5%[15.4 µM]
COc1ccccc1C(=O)N1CCN(C(=O)c2oc3ccc(C)cc3c2C)CC1,-0.8,-0.6%,1.3%,1.4,-17%,6%,8%
CCN(CC)C(=O)c1ccc2c(=O)n(CCOC)c(=S)[nH]c2c1,0.6,-0.3%,0.5%,-0.2,-3%,-25%,15%
CCOC(=O)N1CCN(C(=O)c2ccc(CS(=O)Cc3ccccc3Cl)o2)CC1 (stereo unspecified),.,0.1%,-3.8%,-0.1,9%,14%,1%
Cc1c(-c2ccccc2)n[nH]c1C(=O)NN,0.6,1.8%,.,-0.7,-12%,12%,-1%[15.4 µM]
COc1ccc(NCc2nnc(SCC(=O)Nc3cc(C(F)(F)F)ccc3Cl)o2)cc1,0.2,-2.0%,-0.4%,-3.1,7%,13%,-1%
O=C(CCc1ccc(S(=O)(=O)N2CCOCC2)cc1)N/N=C/c1ccc(O)c(O)c1O,3.6,1.4%,-4.0%,?,0%,22µM*,-7%
COc1ccc2[nH]c(=O)c(CN(CCCN(C)C)C(=O)Nc3ccccc3)cc2c1,?,-0.7%,?,-1.8,1%,13%,-15%

# A second format for part of the listing above:
SMILES	Menin MLL FP FL	PINK1 expr mod	ClpP mod	D2 ag	gsp antagonist	Sfp inh	gsp ag
Cc1ccccc1NC(=O)CN1C(=O)S/C(=C/c2cccnc2)C1=O	.	-0.3%	-7.3%	-2.5	10%	-11%	-27%
CCCCn1c(SCC(=O)Nc2ccc3c(c2)CCC3)nc2ccccc2c1=O	-4.2	8.1%	-2.4%	-1.8	-17%	4%	23%
COc1cc(S(=O)(=O)n2ccc(C)n2)c(OC)cc1Cl	0.2	?	0.7%	-2.9	5%	5%	1%
O=C(NCc1ccccc1Cl)c1ccc(CSc2nc3ccncc3[nH]2)cc1	?	-0.9%	.	1.8	-18%	17%	-5%[15.4 µM]

# An unsorted share of the library. About 5.1% of those tested had a hit in this group.
